High-throughput results (PubChem)
BJeLR viab HTS: compounds reducing viability of BJeLR cells | viability loss activity score, % (test concentration not listed) | BJeLR fibroblasts viability, CellTiterGlo ATP luminescence, 48 h; HRASV12, hTERT and SV40 LT/ST transformed | 30,000 compounds, 0.64% hits | AID 2275; in the data active = viability loss activity score above about 50%; about a fifth of its hits are not listed in these tables;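 also: higher score means fewer live cells and less ATP luminescence; stock transfer was 50 or 100 nL into about 30 µL; 0% = vehicle wells and 100% = a reference killing control; one replicate is shown; the record names a cut of 85%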
A1 inhib: A1 inhibition | MEF A1-2A-BIM cells, caspase-Glo luminescence, 3 h; percent of clofoctol signal, DMSO as zero | AID 2241 | caspase activation, % (concentration not given with the values) | 21,000 compounds, 0.51% hits;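 active = most replicate scores above 10, or exactly half above 10 with mean activity above 10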;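 also: effector caspase 3 and 7 activity cleaving a DEVD luciferin substrate; 50 nL library stock added to about 30 µL; numbers are from one replicate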
* hit, by the source's call; / = no result given. Only part of the results is shown. The share of hits here may be higher or lower than overall.

cpd	SMILES	BJeLR viab HTS	A1 inhib
1	Cc1noc(C)c1NC(=O)N(C)C[C@H]1Oc2c(NC(=O)Nc3ccc(F)cc3)cccc2C(=O)N([C@@H](C)CO)C[C@@H]1C	-2.0	/
2	Cc1ccc2c(c1)C(N1CCCC1=O)CC(c1ccco1)N2 (stereo not given)	1.8	/
3	O=C(NCc1cc2ccccc2s1)C1CN(C(c2ccccc2)c2ccccc2)C1	14	0.6
4	C[C@@H]1CN([C@@H](C)CO)C(=O)c2cc(NC(=O)CCC(F)(F)F)ccc2O[C@H]1CN(C)Cc1ccc(Oc2ccccc2)cc1	-0.4	-0.2
5	CCC1(CC)C(=O)c2cc3ccccc3cc2C1=O	1.5	-0.2
6	CC(C)NC(=O)Nc1ccc2c(c1)C(=O)N([C@H](C)CO)C[C@H](C)[C@H](CN(C)Cc1ccc3c(c1)OCO3)O2	2.9	-0.2
7	Fc1ccc(Nc2nc3ccc(F)cc3s2)cc1	-1.6	/
8	O=C(Nc1cccc(F)c1)C1CCN(c2ncnc3c2sc2cccc(F)c23)CC1	1.4	-0.3
9	CCc1ccc(Oc2coc3cc(OC(=O)C(C)C)ccc3c2=O)cc1	-0.4	/
10	O=C(NCCc1nc2ccccc2[nH]1)C1COc2ccccc2O1 (stereo not given)	-5.9	0.1
11	COc1ccc(NC(=O)N(C)C[C@@H]2Oc3c(NC(=O)C4CCOCC4)cccc3C(=O)N([C@H](C)CO)C[C@H]2C)cc1	-0.9	/
12	Cc1noc(C)c1NC(=O)N(C)C[C@H]1Oc2c(NC(=O)c3cnccn3)cccc2C(=O)N([C@@H](C)CO)C[C@@H]1C	0.4	/
13	COC1OC2COC(c3ccccc3)OC2CC1O (stereo not given)	-3.6	-0.3
14	C[C@@H]1CN([C@@H](C)CO)C(=O)c2cc(NS(=O)(=O)c3ccccc3)ccc2O[C@@H]1CN(C)S(=O)(=O)c1ccccc1	-0.6	0.6
15	C[C@H](CO)N1C[C@H](C)[C@@H](CN(C)CC2CCCCC2)Oc2c(NC(=O)Nc3ccc(C(F)(F)F)cc3)cccc2C1=O	6.9	/
16	Cc1ccc(-c2cc(C(F)(F)F)n3ncc(C(=O)OC(C)C)c3n2)cc1	9.7	-0.4
17	COc1ccc(CN(C)C[C@@H]2Oc3c(NS(=O)(=O)c4c(C)noc4C)cccc3C(=O)N([C@H](C)CO)C[C@@H]2C)cc1	-4.2	/
18	Cc1ccc(CNC(=O)c2c[nH]n3c(=O)cc(CSc4ccc(Cl)cc4)nc23)cc1	-2.3	-0.4
19	COc1ccc(NC(=O)N(C)C[C@@H]2Oc3ccc(NC(=O)Nc4ccc5c(c4)OCO5)cc3C(=O)N([C@H](C)CO)C[C@@H]2C)cc1	-1.3	0.4
20	C[C@@H]1CN([C@H](C)CO)C(=O)c2cccc(NC(=O)C3CCOCC3)c2O[C@H]1CN(C)Cc1ccncc1	3.6	/
21	COc1ccc(NC(=O)N(C)C[C@@H]2Oc3ccc(NS(=O)(=O)c4ccc(OC)cc4)cc3C(=O)N([C@H](C)CO)C[C@H]2C)cc1	1.7	-0.4
22	C[C@H](CO)N1C[C@H](C)[C@H](CN(C)S(=O)(=O)c2ccc(F)cc2)Oc2c(NS(C)(=O)=O)cccc2C1=O	1.3	/
23	Cc1ccc(C)c(-c2csc(N)c2C#N)c1	6.5	-1.4
24	O=c1cc(-c2ccccc2)oc2c(O)c(O)ccc12	1.5	-0.3
25	Cc1nc2sccn2c1-c1csc(Nc2ccc(C(=O)O)cc2)n1	-0.4	/
26	COc1cc(OC)c(C(=O)/C=C/c2ccccc2)c(O)c1O	-13	-1.0
27	C[C@H]1CN([C@@H](C)CO)C(=O)c2cc(NC(=O)C3CCCCC3)ccc2O[C@@H]1CN(C)CC1CCCCC1	-0.2	-0.9
28	C[C@H]1CN([C@@H](C)CO)C(=O)c2cccc(NC(=O)NC3CCCCC3)c2O[C@@H]1CN(C)Cc1ccc2c(c1)OCO2	3.3	/
29	O=C1Nc2cc(C(=O)N3CCc4ccccc4C3)ccc2Sc2ccccc21	0.0	-0.3
30	Cc1ccc(S(=O)(=O)Nc2ccc3c(c2)C(=O)N([C@@H](C)CO)C[C@H](C)[C@@H](CN(C)CC2CC2)O3)cc1	-0.9	0.4
31	COc1cc2c(cc1OC)C(C)N(C(=O)CN1C(=O)CCc3ccccc31)CC2 (stereo not given)	-1.3	-0.3
32	Cc1nn(-c2ccccc2)nc1CNS(=O)(=O)c1c(C)noc1C	0.1	0.4
33	C[C@H](CO)N1C[C@H](C)[C@@H](CN(C)C(=O)Nc2ccc(F)cc2)Oc2ccc(NC(=O)CCCCCC(=O)Nc3ccccc3N)cc2C1=O	-0.2	/
34	C[C@H](CO)N1C[C@H](C)[C@@H](CN(C)C(=O)Nc2ccc3c(c2)OCO3)Oc2c(NC(=O)Nc3ccc(F)cc3)cccc2C1=O	14	/
35	Cc1ccc(S(=O)(=O)Nc2cccc3c2O[C@@H](CN(C)Cc2ccncc2)[C@H](C)CN([C@@H](C)CO)C3=O)cc1	3.6	/
36	O=c1c(F)cn(CC2CC(c3ccccc3)=NO2)c(=O)n1CC1CC(c2ccccc2)=NO1 (stereo not given)	-5.6	-5.7
37	Cc1noc(C)c1S(=O)(=O)Nc1cccc2c1O[C@@H](CN(C)C(=O)Nc1ccc(F)cc1)[C@@H](C)CN([C@@H](C)CO)C2=O	7.3	/
38	O=C(Cn1c(=O)c2cccn2c2ccccc21)NC1CCCc2ccccc21 (stereo not given)	-1.0	0.6
39	CCOc1ccc(S(=O)(=O)N(CC(=O)NC2CC2)c2ccccc2)cc1	6.1	0.1
40	COc1ccc(OCC(O)Cn2nc(C)cc2C)cc1 (stereo not given)	3.0	0.0
41	C[C@@H]1CN([C@@H](C)CO)C(=O)c2cc(N(C)C)ccc2O[C@H]1CN(C)Cc1ccc(Oc2ccccc2)cc1	-1.0	-0.6
42	Cn1cc(CC(=O)NCCCN2CCOCC2)c2ccccc21	-4.3	/
43	COc1cc2c(cc1-c1coc3cc(O[C@@H]4O[C@H](CO)[C@@H](O)[C@H](O)[C@H]4O)ccc3c1=O)OCO2	-1.2	0.4
44	CCOc1cccc2c1Oc1nc(-c3ccccc3)nc(SCC(=O)N(CC)CC)c1C2	0.5	-1.0
45	C[C@H]1CN([C@@H](C)CO)C(=O)c2cccc(NS(C)(=O)=O)c2O[C@H]1CN(C)Cc1ccccc1	2.1	/
46	COC(=O)/C=C/c1cn(C2OCC(CO)C2O)c(=O)[nH]c1=O (stereo not given)	-3.5	0.9
47	Cc1c(-c2cc(NC(=O)c3ccccc3)n[nH]2)sc2ccc(Cl)cc12	6.7	0.3
48	Cc1ccc(S(=O)(=O)Nc2ccc3c(c2)C(=O)N([C@@H](C)CO)C[C@@H](C)[C@@H](CN(C)Cc2ccc(C(F)(F)F)cc2)O3)cc1	-5.1	0.3
49	C[C@@H]1CN([C@@H](C)CO)C(=O)c2cc(NS(C)(=O)=O)ccc2O[C@H]1CN(C)S(C)(=O)=O	-2.1	0.1
50	O=c1[nH]c(=O)n(Cc2c(Cl)cccc2Cl)cc1F	-6.1	1.0

Further results follow:
cpd	SMILES	BJeLR viab HTS	A1 inhib
51	Cc1cc(NC(=O)c2cc(-c3ccc(F)cc3)no2)nn1CC(=O)NCc1ccco1	3.6	-0.9
52	Cc1noc(C)c1S(=O)(=O)N(C)C[C@@H]1Oc2c(cccc2N(C)C)C(=O)N([C@H](C)CO)C[C@H]1C	-5.6	/
53	O=C(Cn1c2ccccc2c2cn[nH]c(=O)c21)NCCC1=CCCCC1	-1.7	-0.7
54	COc1ccc(S(=O)(=O)Nc2ccc3c(c2)C(=O)N([C@@H](C)CO)C[C@@H](C)[C@@H](CN(C)S(=O)(=O)c2cn(C)cn2)O3)cc1	3.6	1.4
55	CSc1nc2sc3c(c2c(=O)n1-c1cccc(Br)c1)CC(C)(C)OC3	-5.0	-0.1
56	C[C@H]1CN([C@@H](C)CO)C(=O)c2cc(NC(=O)C3CC3)ccc2O[C@H]1CN(C)S(=O)(=O)c1ccc(Cl)cc1	1.4	-0.5
57	Nc1cc(=O)[nH]c2nnc(SCc3ccc(Br)cc3)n12	-1.9	/
58	Cc1ccc(S(=O)(=O)N(C)C[C@@H]2Oc3c(cccc3N(C)C)C(=O)N([C@H](C)CO)C[C@H]2C)cc1	6.6	/
59	COc1ccc(S(=O)(=O)Nc2cccc3c2O[C@H](CN(C)S(=O)(=O)c2ccc(OC)cc2)[C@H](C)CN([C@H](C)CO)C3=O)cc1	-7.8	/
60	CC(C)NC(=O)Nc1ccc2c(c1)C(=O)N([C@H](C)CO)C[C@H](C)[C@H](CN(C)Cc1ccncc1)O2	-0.1	1.0
61	COc1cccc(N2C(=O)CC(SCC(=O)Nc3ccc4ccccc4c3)C2=O)c1 (stereo not given)	3.6	-0.3
62	CCN(c1cccc(C)c1)c1ncnc2c1cnn2-c1ccc(C)cc1C	-7.5	-0.6
63	C[C@H]1CN([C@@H](C)CO)C(=O)c2cc(NC(=O)c3ccncc3)ccc2O[C@H]1CN(C)S(=O)(=O)c1cccs1	0.4	1.8
64	C[C@H]1CN([C@@H](C)CO)C(=O)c2cccc(N(C)C)c2O[C@@H]1CN(C)Cc1ccc(Oc2ccccc2)cc1	10	/
65	CC(C)Nc1cc(Br)c2noc3c2c1C(=O)c1ccccc1-3	20	/
66	C[C@@H]1CN([C@H](C)CO)C(=O)c2cc(NC(=O)Nc3cccc4ccccc34)ccc2O[C@@H]1CN(C)C(=O)Nc1ccc(F)cc1	-9.1	0.1
67	C[C@@H]1CN([C@@H](C)CO)C(=O)c2cc(NC(=O)Nc3ccccc3)ccc2O[C@H]1CN(C)C(=O)NC1CCCCC1	-1.1	0.3
68	CC1OC(OC2C(OC(=O)C34CCC(C)(C)CC3C3=CCC5C6(C)CCC(OC7OC(CO)C(OC8OC(C(=O)O)C(OC9OCC(O)C(O)C9O)C(O)C8O)C(O)C7O)C(C)(CO)C6CCC5(C)C3(C)CC4)OC(COC3OCC(O)C(O)C3O)C(O)C2O)C(O)C(O)C1O (stereo not given)	-7.6	-1.0
69	C[C@H](CO)N1C[C@H](C)[C@H](CN(C)S(C)(=O)=O)Oc2ccc(NS(=O)(=O)c3ccc(Cl)cc3)cc2C1=O	-0.2	0.6
70	Cc1ccc(C(O)COC2=NCNc3cc(Cl)ccc32)cc1 (stereo not given)	5.0	0.6
71	O=C(CSc1ncnc2c1sc1ccccc12)NC1CCCCC1	2.4	-0.6
72	Cc1ccccc1-c1nc(CSc2nc3c(c(=O)[nH]2)CCC3)c(C)o1	-7.7	-0.1
73	N#CCC(=O)NCc1ccccn1	3.7	0.3
74	C[C@H]1CN([C@@H](C)CO)C(=O)c2cc(NC(=O)Cc3ccccc3)ccc2O[C@@H]1CN(C)S(=O)(=O)c1cccs1	0.2	1.0
75	C[C@@H]1CN([C@H](C)CO)C(=O)c2cccc(NS(=O)(=O)c3ccc(F)cc3)c2O[C@@H]1CN(C)Cc1ccc(C(=O)O)cc1	-0.4	/

6 records picked at random from the list so far, as already listed:
cpd	SMILES	BJeLR viab HTS	A1 inhib
64	C[C@H]1CN([C@@H](C)CO)C(=O)c2cccc(N(C)C)c2O[C@@H]1CN(C)Cc1ccc(Oc2ccccc2)cc1	10	/
61	COc1cccc(N2C(=O)CC(SCC(=O)Nc3ccc4ccccc4c3)C2=O)c1 (stereo not given)	3.6	-0.3
59	COc1ccc(S(=O)(=O)Nc2cccc3c2O[C@H](CN(C)S(=O)(=O)c2ccc(OC)cc2)[C@H](C)CN([C@H](C)CO)C3=O)cc1	-7.8	/
53	O=C(Cn1c2ccccc2c2cn[nH]c(=O)c21)NCCC1=CCCCC1	-1.7	-0.7
75	C[C@@H]1CN([C@H](C)CO)C(=O)c2cccc(NS(=O)(=O)c3ccc(F)cc3)c2O[C@@H]1CN(C)Cc1ccc(C(=O)O)cc1	-0.4	/
51	Cc1cc(NC(=O)c2cc(-c3ccc(F)cc3)no2)nn1CC(=O)NCc1ccco1	3.6	-0.9

More entries follow:
cpd	SMILES	BJeLR viab HTS	A1 inhib
76	CCOC(=O)N1CCC(NS(=O)(=O)c2cccs2)CC1	0.1	0.5
77	CCN1C(=O)CC(C(=O)Nc2ccccc2)SC1=Nc1ccccc1 (stereo not given)	-1.3	-1.8
78	CC1CCN(CCCNC(=O)C2CC(=O)N(CCc3ccccc3)C2)CC1 (stereo not given)	0.9	0.4
79	CC(C)NC(=O)N(C)C[C@@H]1Oc2c(NS(C)(=O)=O)cccc2C(=O)N([C@H](C)CO)C[C@@H]1C	2.1	/
80	CCc1nn(C)c2c(=O)c(=O)c2n(C)[nH]1	2.4	0.4
81	CC(C)CCSc1nc(N)c2c3c(sc2n1)CCCC3C (stereo not given)	-2.0	-0.9
82	COc1ccc(NC(=O)Nc2ccc3c(c2)C(=O)N([C@@H](C)CO)C[C@H](C)[C@H](CN(C)C(=O)Nc2ccc(OC)cc2)O3)cc1	2.3	-0.3
83	Cc1cc(=O)[nH]c(SCC2COC3(CCCCC3)O2)n1 (stereo not given)	-4.7	0.3
84	Cc1ccc(S(=O)(=O)N(C)C[C@H]2Oc3c(NS(=O)(=O)c4ccc(Cl)cc4)cccc3C(=O)N([C@H](C)CO)C[C@H]2C)cc1	-1.5	/
85	CCC(CC)NC(=O)c1ccc(OC)cc1OC	-1.6	-1.1
